Source: PubChem (ICCB-Longwood Screening Facility, Harvard Medical School)
AID504770: growth inhibitors of E. coli YBA685 in a screen for V. cholerae RctB (chromosome II replication) inhibitors. hit rate 0.27% among 130,000. z-score (concentration not given with the values). E. coli YBA685 rctB-dependent plasmid, OD600 growth, 3 h; stronger effect = lower value;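 active means z-score under -2 on both plates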;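 further: wells of about 30 µL received 100 nL stock; score is relative to mean and SD of the test wells; the first replicate is given; strong numbers were not always called active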
Ba CapD inh: CapD enzyme inhibition; z-score (concentration not given with the values); AID 492967; purified CapD enzyme, fluorescence intensity read-out; stronger effect = lower value; some hits fall short of the stated cut; hit rate 0.23% among 140,000;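 active means z-score under -4 in either of two replicates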;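 further: stock transfer was 100 nL into about 40 µL; score is relative to mean and spread of the plate; one replicate is shown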
Starred values were filed as active, the others as inactive; / = no result given.

SMILES	AID504770	Ba CapD inh
COc1ccc(C2Nc3ccccc3C(=O)N2c2ccc(F)cc2)cc1COc1ccc(NC(C)=O)cc1 (configuration not stated)	/	26.5
CN(CC(=O)Nc1cccnc1)S(=O)(=O)c1ccc2[nH]c3c(c2c1)CCCC3	-0.1	1.91
O=C(ONc1cnc2ccccc2c1)c1ccco1	0	0.31
CC(C)Oc1ccc(/C=C(\NC(=O)c2ccccc2)C(=O)NCc2ccco2)cc1	/	-0.11
CCSC1=C(C#N)C(c2ccccc2Cl)C2=C(CCCC2=O)N1 (configuration not stated)	1.7	0.605
O=C1C(=O)N(c2ccccn2)C(c2cccnc2)/C1=C(\O)c1ccc(Br)cc1 (configuration not stated)	/	-0.275
CN(C1CCCCC1)S(=O)(=O)c1ccc(C(=O)Nc2nnc(-c3cccnc3)o2)cc1	-1.35	/
NC(=O)c1cc2sccc2nc1C(F)(F)F	/	-0.32
Nc1c(-c2nc(-c3ccc4c(c3)OCO4)no2)nnn1-c1ccc(C(F)(F)F)c(Cl)c1	-0.25	2.44
COC(=O)c1ccccc1NC(=O)c1ccc(N2CC3CC(C2)c2cccc(=O)n2C3)c(NC(=O)c2ccc(OC)cc2)c1 (configuration not stated)	/	0.75
CCNS(=O)(=O)c1ccc(-c2oc3cc(S(=O)(=O)NCC)ccc3c2Cl)cc1	-0.4	59.4
CCOc1cc(C2CC(=O)NC(SCc3ccccc3)=C2C#N)ccc1O (configuration not stated)	0.2	0.035
CN(C)Cc1cc2ccccc2[nH]1	-0.6	0.17
Cc1ccc2onc(CNC(=O)Nc3cccc(C(F)(F)F)c3)c2c1	-0.9	0.335
COc1cc(-c2c(C#N)c(N)nc3sc(C(=O)c4ccc([N+](=O)[O-])cc4)c(N)c23)cc(OC)c1OC	/	0.235
N#Cc1ccc(S(=O)(=O)N2CCN(S(=O)(=O)c3cccs3)CC2)cc1	0.15	/
CC(C)N(C(=O)CSc1nc(=O)n2ccccc2n1)C(C)C	-0.6	/
O=C(COC(=O)c1cc2c(s1)CCC2)c1ccc[nH]1	-0.7	/
CCC(CC)NC(=O)CN1C(=O)C2CC=CCC2C1=O (configuration not stated)	-0.6	/
CCOc1ccc2c(c1)C(=C1SC(C(=O)OC)=C(C(=O)OC)S1)C(=S)C(C)(C)N2C(=O)c1cccc(Br)c1	/	0.785
COc1ccccc1NC(=O)c1cc(=O)[nH]c2ccccc12	-0.15	-0.945
CC1(C)CCc2cc(CN3CCN(c4ncc(C(F)(F)F)cc4Cl)CC3)ccc2O1	2.15	-1.24
CC12CS(=O)(=O)CC1SC(=S)N2Cc1ccccc1 (configuration not stated)	-0.15	0.505
CCOC(=O)C1=C(C)OC(N)=C(C#N)C1c1c(C)cc(C)c([N+](=O)[O-])c1C (configuration not stated)	/	-0.39
C/C(=N\NC(=O)c1ccc(NS(=O)(=O)c2cccs2)cc1)c1cccs1	0.6	/
Cc1ccc(N=Cc2ccc3c(c2)OCCO3)cc1C	-0.3	-0.27
O=C(N1CCc2ccc(S(=O)(=O)NCC(O)CO)cc2C1)C(F)(F)F (configuration not stated)	/	1.11
O=C(O)c1cccc(OCc2ccccc2)c1	-1.15	-0.835
Clc1cccc(-c2cc3nc4c(c(N5CCCCC5)n3n2)CCCC4)c1	-0.9	/
O=C(CN1C(=O)/C(=C\c2cccs2)SC1=S)Nc1ccc2c(c1)OCO2	0.95	-0.395
O=C1OC(c2ccc(Cl)cc2)/C(=C(/O)c2ccccc2)C1=O (configuration not stated)	-0.05	-0.57
COc1ccc(Cn2cccc2C2=NCC(C)O2)cc1 (configuration not stated)	-0.85	-0.67
N#Cc1c(C(F)(F)F)cc(-c2ccccc2)nc1SCC(=O)Nc1ccc(S(N)(=O)=O)cc1	/	2.12
Nc1nc(N)nc(COc2ccccc2)n1	-1.55	/
O=C(COC(=O)c1cccc2ccccc12)NC1CC1	0.1	/
Cc1cc(OCC(=O)N(C)C2CCCCC2)ccc1Cl	0.15	1.82
CCOc1ccc(-c2cn3c(n2)sc2cc(C(=O)NCc4cccs4)ccc23)cc1	0.35	11.6
CCCC(C)C(=O)NCc1ccc(C)cc1 (configuration not stated)	-0.4	0.585
COCCN(C(=O)c1ccco1)C1CCN(C)CC1	/	-0.415
O=C(NCc1ccccc1)c1cc2ccc(O)cc2oc1=O	0.05	70.5
CN1CCN(c2ncnc3c2cnn3C)CC1	0.7	0.5
CSc1nn(-c2ccccc2)cc1C(=O)N1CCCCC1	0.1	0.1
Clc1ccc(Cn2nnc3c(SCc4cccnc4)ncnc32)cc1	0.1	/
CC12CCCC(=O)N1C(COC(=O)N1CCC(C(O)(c3ccccc3)c3ccccc3)CC1)C(c1ccccc1)O2 (configuration not stated)	/	-0.29
N#CCCn1c(CC(N)=O)nc2ccccc21	-0.65	0.195
Cc1cccc(OCC(=O)Nc2ccc3c(c2)nc2n3CCN(c3ccccc3)C2)c1	-0.15	2.85
Cc1cccc2sc(NC(=O)c3sc4ncnc(N5CCOCC5)c4c3C)nc12	/	2.3
Cc1ccc(C2c3c(oc4ccc(C)cc4c3=O)C(=O)N2c2ccccn2)cc1 (configuration not stated)	-0.7	-0.505
CCOc1ccc(C2NC(C(=O)O)CS2)cc1 (configuration not stated)	0.9	0.515
Cc1onc(-c2ccccc2)c1C(=O)ON=C1C2CC3CC(C2)CC1C3	-0.6	0.86

Shown bar-delimited: entries from further up
structure | AID504770 | Ba CapD inh
C/C(=N\NC(=O)c1ccc(NS(=O)(=O)c2cccs2)cc1)c1cccs1 | 0.6 | /
Cc1ccc(N=Cc2ccc3c(c2)OCCO3)cc1C | -0.3 | -0.27
O=C(N1CCc2ccc(S(=O)(=O)NCC(O)CO)cc2C1)C(F)(F)F (configuration not stated) | / | 1.11
O=C(O)c1cccc(OCc2ccccc2)c1 | -1.15 | -0.835
Clc1cccc(-c2cc3nc4c(c(N5CCCCC5)n3n2)CCCC4)c1 | -0.9 | /
O=C(CN1C(=O)/C(=C\c2cccs2)SC1=S)Nc1ccc2c(c1)OCO2 | 0.95 | -0.395

Back to the main list; the seven compounds before the break are reprinted first.
SMILES	AID504770	Ba CapD inh
CC12CCCC(=O)N1C(COC(=O)N1CCC(C(O)(c3ccccc3)c3ccccc3)CC1)C(c1ccccc1)O2 (configuration not stated)	/	-0.29
N#CCCn1c(CC(N)=O)nc2ccccc21	-0.65	0.195
Cc1cccc(OCC(=O)Nc2ccc3c(c2)nc2n3CCN(c3ccccc3)C2)c1	-0.15	2.85
Cc1cccc2sc(NC(=O)c3sc4ncnc(N5CCOCC5)c4c3C)nc12	/	2.3
Cc1ccc(C2c3c(oc4ccc(C)cc4c3=O)C(=O)N2c2ccccn2)cc1 (configuration not stated)	-0.7	-0.505
CCOc1ccc(C2NC(C(=O)O)CS2)cc1 (configuration not stated)	0.9	0.515
Cc1onc(-c2ccccc2)c1C(=O)ON=C1C2CC3CC(C2)CC1C3	-0.6	0.86
COc1nc2sccn2c1/C=N/N1CC(=O)NC1=O	2.05	/
Cc1nc(S(=O)(=O)NCc2ccccc2Cl)c(C#N)c(C)c1Cl	/	0.035
O=c1c2c([nH]n1-c1ccccc1)CCSC2	-0.35	-1.21
COc1cccc(CN2C(=O)C3(C(C#N)=C(N)OC4=C3C(=O)CCC4)c3ccccc32)c1 (configuration not stated)	-0.4	-0.255
O=C(c1sc2cc(F)ccc2c1Cl)N1CCCCCC1	0.4	-0.23
CCCNC(=O)c1ccc2ncsc2c1	-0.6	/
O=C(OCC(=O)N1CCCCC1)c1cccc2ccccc12	-0.05	/
O=C(CCCCn1c(=O)[nH]c2ccsc2c1=O)N1CCN(c2ccccc2)CC1	-0.75	/
O=c1c2ccc(Cl)cc2nc(SCc2nnc(-c3cccs3)o2)n1Cc1ccco1	0.95	/
CCc1ccccc1NC(=O)c1cc(S(=O)(=O)NC2CCCCC2)ccc1F	/	-0.395
CN(C)/C=C/C=C/c1cc(=O)cc(/C=C/C=C/N(C)C)o1	-0.35	-14.6*
CCOC(=O)c1c(-c2ccccc2)oc2c1cc(OC(=O)C(C)(C)C)c1ccccc12	/	0.635
CC(C)OP(C)(=O)CN1CCCC1=O (configuration not stated)	0	0.425
CCOc1ccccc1NC(=O)c1ccc2nc[nH]c2c1	0.1	/
CCC(O)c1nc2ccccc2n1CCOc1ccc(C)c(C)c1 (configuration not stated)	0.05	0.6
CCCCCCCC1C(=O)NC(=O)NC1=O	-1.1	0.805
CC1CCC(NS(=O)(=O)c2ccc3c(c2)n(C)c(=O)c(=O)n3C)CC1 (configuration not stated)	1.25	1.69
CCCN1CCN(S(=O)(=O)c2cc(OCC)c(-n3cnnn3)cc2OCC)CC1	0.5	54.8
Cc1nc(SCC(C)C)c(C#N)c(C)c1C	0.7	0.425
CSc1cccc(N=Cc2oc(O)c3ccccc23)c1	-0.35	-0.645
Cc1nc(C)nc(NC(=O)NC(=O)c2cc(OCC(F)(F)F)ccc2OCC(F)(F)F)n1	1.25	58.3
COC(=O)CCc1c(C)nn(-c2ccc(C(=O)NCC(=O)Nc3ccc4ccccc4c3)cc2)c1C	/	-0.185
O=C(COc1ccccc1Cl)N/N=C/c1ccnc2ccccc12	/	8.05
Cc1ccc(S(=O)(=O)NC(=O)CC#N)cc1	2.35	/
CCN(CC)CCCN1C(=O)C(=O)/C(=C(/O)c2cc(C)ccc2C)C1c1cccs1 (configuration not stated)	-0.65	-0.575
Cc1nc(C(F)(F)F)ccc1C(=O)Nc1nc2ccsc2c(=O)s1	-0.25	1.46
CCN1C(=O)N(CC)C2(O)c3ccccc3C(=O)C12O (configuration not stated)	/	5.97
CNC(=S)NN(Cc1ccccc1)c1ccccc1	0	/
Cc1ccc2c(c1)CCCN2C(=O)C1CCCO1 (configuration not stated)	-0.35	0.595
CC1(C)Cc2c(c(N3CCOCC3)nc3sc4c(c23)N2C(=O)CCC2(C)NC4=O)CO1 (configuration not stated)	0.3	10.7
O=C1NCN(c2ccccc2)C12CCN(CCCC(c1ccc(F)cc1)c1ccc(F)cc1)CC2	/	-0.265
COc1ccc(Cn2c(=O)[nH]c3cc(C(=O)NC4CCCCC4)ccc3c2=O)cc1	0.2	0.105
CCn1c2ccccc2c2cc(CN3CCN(C(=O)C4CCN(C(=O)OC(C)(C)C)CC4)CC3)ccc21	/	9.53
COc1ccc(-c2[nH]c3ccccc3c2SCCNC(=O)c2ccc3c(c2)OCO3)cc1	2.25	0.05
Cc1cccc(C)c1NC1=NC(C)(C)CS1	0.9	0.07
O=C1NC23NC(=O)NC2(N1)c1ccccc1-c1ccccc13 (configuration not stated)	/	-0.265
CCc1nnc2c(NCC3CCCO3)nc3ccccc3n12 (configuration not stated)	-0.55	0.46
CC(=O)Nc1cc2c(cc1[N+](=O)[O-])OCCOCCOCCO2	/	-1.21
Cc1[nH]n(-c2ccccc2)c(=O)c1S(=O)(=O)c1ccccc1	0.95	-0.055
O=C(CSc1nnc(Cc2ccccc2)o1)c1ccc(SC(F)F)cc1	/	-0.52
CCOC(=O)C1=C(O)/C(=C/c2ccc(F)cc2)SC1=Nc1cccc(Cl)c1	/	0.805
CCOC(=O)c1cc(-c2ccccc2)n(-c2ccc(C(=O)O)cc2)c1C	0.85	0.465
COc1ccc(Cc2nnc3n2N=C(c2ccc(C)c(C)c2)C(C)S3)cc1OC (configuration not stated)	-0.2	/
CCOc1ccc2cc(C3CC(c4ccccc4)=NN3C(=O)CCC(=O)O)c(Cl)nc2c1 (configuration not stated)	/	7.04
COc1ccc(C2C(C(=O)NCC3CCCO3)CCC(=O)N2c2ccc3c(c2)OCO3)cc1 (configuration not stated)	-0.2	0.565
OCCNc1nc2ccccc2n1Cc1ccccc1	-0.2	-0.16
O=C(CSC1CCCC1)c1ccccc1F	-0.5	3.88
OC(CN1CCOCC1)Cn1c2ccccc2c2ccccc21 (configuration not stated)	-0.4	/
CCC(C)OC(=O)C1=C(C)NC2=C(C(=O)CC(c3ccc(OC)cc3)C2)C1c1cc2c(cc1[N+](=O)[O-])OCO2 (configuration not stated)	/	0.565
Cc1cccc(Nc2nc(CC(=O)O)cs2)c1	-0.7	/

(further entries)
SMILES	AID504770	Ba CapD inh
COC(=O)c1ccc2c(=O)n(CCN3CCOCC3)c(SCC(=O)N3CCN(c4ccccc4OC)CC3)nc2c1	/	-0.765
COc1cc(/C=c2\sc3nc4c(C)c(C)ccc4n3c2=O)ccc1OCc1ccc(F)cc1	/	-0.31
O=C(c1c(Cl)nc2sccn12)N1CCCc2ccccc21	0.7	0.385
O=C1CCC(=O)N1c1cccc(-c2nc3ccccc3o2)c1	-0.3	0.405
CCS(=O)(=O)c1ccc(O)c(N2C(=O)C3C4C=CC(C4)C3C2=O)c1 (configuration not stated)	2.4	-0.66
CCCOP(=O)(OCCC)C(NC(=O)c1ccccc1)=C(Cl)Cl	/	0.135
COc1ccc(NC(=O)CN2CCC(N3CCCCC3)CC2)c(OC)c1	-0.25	/
COc1cccc(C2=N/C(=C\c3ccccc3OC)C(=O)N2c2ccc(C)cc2)c1	/	-0.16
CCn1c(=NC(=O)c2ccc(S(=O)(=O)N(C)C)cc2)sc2cc(C(=O)OC)ccc21	0.2	/
CCN1CCCC1CNC(=O)c1ccc2c(=O)n(Cc3cccc(Br)c3)c(=S)[nH]c2c1 (configuration not stated)	/	1.42
COc1ccccc1C(=O)NCCC(=O)Nc1ccc(N2CCN(C)CC2)cc1C	-0.65	/
CCOc1ccc2c(c1)-c1c(ssc1=S)C(C)(C)N2C(=O)CSc1nnc(N)s1	/	-1.18
Nc1[nH]c(=O)[nH]c(=O)c1N=Nc1ccc(S(=O)(=O)N2CCOCC2)cc1	0.75	/
CCN(CC)c1ncccc1C(=O)NCc1cccs1	-0.8	/
